# Screens deposited in PubChem by National Center for Advancing Translational Sciences (NCATS).
# StopGo RLuc: Primary qHTS Assay for Foot and Mouth Disease Virus Antivirals against NCGC Sytravon and CBC Compound Libraries: Renilla Luciferase Signal. Potency, µM (titrated, usually from 57.5 µM), inactives show at the top dose signal change, negative = less light. HEK cells with a luciferase reporter of 2A StopGo recoding. 120,000 compounds, 0.32% hits; active means well fitted falling curve with a large enough effect; inconclusive means small, poorly fitted or top-dose-only effect; inactive means no such curve, though single readings can be large or run the other way; note: nearly all actives have a fitted effect of over 55% in size; overnight with compound
# StopGo FLuc: Primary qHTS Assay for Foot and Mouth Disease Virus Antivirals against NCGC Sytravon and CBC Compound Libraries: Firefly Luciferase Signal. HEK cells with a luciferase reporter of 2A StopGo recoding. Potency, µM (titrated, usually from 57.5 µM), without a hit: at the top dose signal change, negative = less light. 120,000 compounds, 0.23% hits. AID 1745856, 2022; active = well fitted falling curve with a large enough effect; inconclusive = small, poorly fitted or top-dose-only effect; inactive = no such curve, though single readings can be large or run the other way; note: nearly all actives have a fitted effect of over 60% in size; overnight with compound
# An asterisk follows results filed as active; u = inconclusive; [ ] = dose if it differs, or a comment. % is set by controls: 0 for no effect and ±100 for the full control effect; potency is the fitted concentration of half-maximal effect.
SMILES	StopGo RLuc	StopGo FLuc
O=C(CCCc1ccccc1)NC1CC(=O)N(c2cccc(F)c2)C1 (centres undefined)	3.2%	23.6%
CC(C)(C)C(=O)Nc1nnc(Cc2ccc(Cl)cc2)s1	-3.2%	0.0%
CCC(=O)N1CCc2cc(S(=O)(=O)NCCC(=O)Nc3ccc(C)cc3C)ccc21	6.1%	-10.4%
Cc1ccc(S(=O)(=O)c2cn(CC(=O)Nc3ccc(C)c(F)c3)c3nc(C)ccc3c2=O)c(C)c1	7.1%	-2.0%
O=S(=O)(NCc1ccccc1Cn1cccn1)N1CCOCC1	-6.3%	-8.6%
Cn1c(=O)oc2cc(S(=O)(=O)N3CCCC(C(=O)NCCc4ccccc4)C3)ccc21 (centres undefined)	2.2%	-9.0%
COc1ccc(S(=O)(=O)Nc2cccc(-c3ccc(N4CCC(C)CC4)nn3)c2)c(OC)c1	210.9%[activator]	131.9%[activator]
CCOc1ccc(NC(=O)c2cnn(-c3ccc(F)cc3)c2-n2cccc2)cc1	41.1%	77.0%[activator]
O=C(OCC12CC3CC(CC(C3)C1)C2)c1ccc([N+](=O)[O-])cc1	2.5%	5.1%
CCn1c(=O)n(-c2cccc(Cl)c2)c(=O)c2sc3ccccc3c21	6.9%	-7.0%
CC(=O)Nc1ccc(NC(=O)c2nc(S(=O)(=O)Cc3ccc(F)cc3)ncc2Cl)cc1	u	u
C#CCNC(=O)CCc1ccco1	2.0%	-0.1%
CN(Cc1nc2ccccc2n1C(F)F)S(=O)(=O)c1ccc(F)cc1	3.6%	19.0%
COc1ccc(C2(CNC(=O)C(=O)Nc3ccccc3C)CCCC2)cc1OC	-2.7%	-9.9%
O=C(NCc1ccccc1)NC(NC(=O)c1ccccc1)(C(F)(F)F)C(F)(F)F	u	u
CCCCNc1nc(Oc2ccc(=O)n(-c3ccccc3)n2)nc(N(CC)CC)n1	-6.2%	17.1%
Cc1ccc(-c2cc(C(=O)Nc3cccc(C)n3)c3ccccc3n2)cc1	-2.2%	26.1%
COc1cccc(Nc2sc(C(=O)c3ccc(Cl)cc3)c(N)c2C(=O)NCCc2ccc(OC)c(OC)c2)c1	27.4%	11.0%
Cc1cccc2c(=O)c(-c3ccccc3)c(NC(=O)c3ccc([N+](=O)[O-])cc3)oc12	-22.5%	-22.5%
O=C(c1cccc(S(=O)(=O)N2CCOCC2)c1)N(Cc1ccco1)C1CC1	4.6%	-2.9%

# In the list so far, these contain a thiophene ring, fused or not.
SMILES	StopGo RLuc	StopGo FLuc
CCn1c(=O)n(-c2cccc(Cl)c2)c(=O)c2sc3ccccc3c21	6.9%	-7.0%
COc1cccc(Nc2sc(C(=O)c3ccc(Cl)cc3)c(N)c2C(=O)NCCc2ccc(OC)c(OC)c2)c1	27.4%	11.0%

# New compounds follow.
SMILES	StopGo RLuc	StopGo FLuc
COCCSc1nc2c([nH]c3ccccc32)c(=O)n1-c1ccc(OC)c(OC)c1	-0.7%	-16.5%
O=C(Cn1ccc2cc(Cl)ccc21)NCc1ccccc1	-4.8%	7.2%
O=C(Nc1ccccc1F)c1cc(-c2cccs2)nc2ccccc12	10.2%	17.9%
Cc1ccc(NC(=O)CC(C)n2ccc(C)n2)c(Cl)c1 (centres undefined)	-1.2%	69.6%[activator]
COc1ccc(-n2nc(C(=O)N(C)c3cccc(C(F)(F)F)c3)c3c4ccccc4n(C)c3c2=O)cc1	-5.6%	5.4%
Cc1ccc(NC(=O)C2CCCN(S(=O)(=O)c3c(C)n[nH]c3C)C2)c(C)c1 (centres undefined)	9.4%	9.0%
Cc1ccc(NS(=O)(=O)c2cccc(Cl)c2Cl)cc1S(=O)(=O)N1CCOCC1	22.7%	-1.2%
CCCCCOc1ccc(/C=C/C(=O)Nc2sc(C)c(C)c2C(=O)OCC)cc1OC	-12.8%	-18.3%
Cc1c(C(=O)OCC2CCCCC2)[nH]c2c1C(=O)CC(c1ccccc1Cl)C2 (centres undefined)	-5.8%	-18.9%
CCOC(=O)C(NC(=O)COc1ccc2ccccc2c1)C(=O)OCC	-11.5%	0.0%
COc1ccc(CNC(=O)Nc2cn(CC(C)C)c(=O)c3ccccc23)cc1	-8.1%	-5.5%
C=CCN(CC=C)C(=O)/C=C/c1csc(C)n1	0.4%	13.4%
CCc1ccc(NC(=O)C(C#N)=C2CCCCC2)cc1	22.8%	0.0%
CCOc1ccc(N(Cc2cc3cc(OC)ccc3[nH]c2=O)C(C)=O)cc1	-10.5%	-5.5%
CCCOc1ccc(-c2nc(C#N)c(NCCN(C)C)o2)cc1	6.1%	11.8%
CCc1c(C)sc(NC(=O)/C=C/C(=O)O)c1C#N	-28.5%	3.5%
CC(=O)c1c(C)[nH]c(C(=O)C(C)Cl)c1C (centres undefined)	48.8%[activator]	0.0%
CN(C)C(=O)CN1CCN(C(C(=O)O)c2c[nH]c3ccc(NC(=O)c4ccccc4)cc23)CC1 (centres undefined)	3.3%	0.0%
Cc1cc(C)n(-c2nc3cc(Cl)ccc3nc2Nc2ccc(CC(=O)O)cc2)n1	-11.6%	-8.5%
O=C(CCc1c[nH]c2ccccc12)Nc1cccc(Cl)c1F	6.9%	69.1%[activator]
CCNc1sc(S(C)(=O)=O)nc1S(=O)(=O)c1ccc(C)cc1	43.5%[activator]	8.4%
Cc1ccc(C(=O)/C=C/c2cccc(C#N)c2)o1	-9.7%	42.0%[activator]
CC1C(=O)CCN(C2CC2)C1C (centres undefined)	2.4%	23.0%
COc1cccc(NC(=O)c2cccn(Cc3ccccc3C)c2=O)c1	-5.9%	24.0%
O=C(Oc1ccc2cc(Br)ccc2c1)C(c1ccccc1)c1ccccc1	7.9%	15.1%
Cc1ccc(C(NC(=O)c2n[nH]c(=O)c3ccccc23)C2CC2)cc1 (centres undefined)	-6.9%	-16.1%
CCN(CC)CCNC(=O)Cc1nn(C(C)C)c(=O)c2ccccc12	-8.4%	-15.3%
CCOC(=O)c1cnc2c(C)cccc2c1NCCc1ccc(OC)c(OC)c1	1.5%	0.8%
O=C(O)Cc1ccc(NC2(c3ccccc3)C(=O)c3ccccc3C2=O)cc1	-3.8%	-3.5%
Cc1ccc(C(=O)OC2=C(C(=O)c3ccccc3)N(C)S(=O)(=O)c3ccccc32)cc1	-9.9%	-11.0%
CN(Cc1cccc(C#N)c1)C(=O)c1cnc2ccccc2n1	4.3%	19.1%
CCc1cccc(N2C(=O)N(Cc3c(F)cccc3Cl)c3ccccc3S2(=O)=O)c1	1.8%	-8.4%
CC(C(=O)NC1CC1)N1CCN(Cc2cccc3cccnc23)CC1 (centres undefined)	-9.7%	-1.3%
COc1ccc(CN2CC3=C(C2=O)C(c2ccc(C)cc2)NC(=O)N3)cc1 (centres undefined)	1.8%	-1.9%
Cc1nc2nc(NC(=O)c3ccccc3F)[nH]n2c(=O)c1Cl	-9.8%	-5.2%
Cc1ccccc1NC(=O)CCc1c(C)nn(-c2ccc(N3CCCC3)nn2)c1C	-1.7%	0.7%
COC(=O)c1ccc(NS(=O)(=O)c2c(C)c(C)cc(C)c2C)c(C)c1	396.3%[activator]	25.6%
CC(C)c1noc(CCC(=O)Nc2ccccn2)n1	-5.2%	9.8%
O=C(CCn1c(=O)c2cccn2c2cccnc21)NCc1ccc(Cl)cc1	-14.3%	-6.0%
Cc1cc(C)cc(N(CC(=O)NC(C(C)C)C(C)C)S(=O)(=O)c2ccccc2)c1	9.2%	3.3%

# A second format for part of the listing above:
structure: Cc1ccc(C(=O)OC2=C(C(=O)c3ccccc3)N(C)S(=O)(=O)c3ccccc32)cc1
  StopGo RLuc: -9.9%
  StopGo FLuc: -11.0%
structure: COC(=O)c1ccc(NS(=O)(=O)c2c(C)c(C)cc(C)c2C)c(C)c1
  StopGo RLuc: 396.3%[activator]
  StopGo FLuc: 25.6%
structure: CC(C)c1noc(CCC(=O)Nc2ccccn2)n1
  StopGo RLuc: -5.2%
  StopGo FLuc: 9.8%
structure: O=C(O)Cc1ccc(NC2(c3ccccc3)C(=O)c3ccccc3C2=O)cc1
  StopGo RLuc: -3.8%
  StopGo FLuc: -3.5%

# The list goes on:
SMILES	StopGo RLuc	StopGo FLuc
CCCCn1c(=O)c2sccc2n(CC(=O)N(CC)c2ccccc2)c1=O	10.9%	-6.1%
COc1cc(OC)c2c(C)c(CC(=O)NCc3ccc(F)cc3)c(=O)oc2c1	-5.4%	-3.8%
Cc1cccc2nc(-c3cccc(NS(=O)(=O)c4ccccc4)c3)cn12	114.2%[activator]	29.9%
CCn1nc(C(=O)OCc2ccc3cc(OC)ccc3c2)c2ccccc2c1=O	u	-23.1%
O=S(=O)(Nc1cccc2cccnc12)c1ccc(F)c(F)c1F	u	u
O=C(COc1ccccc1O)Nc1cccc(Br)c1	49.3%[activator]	0.0%
Cc1ccc2nc(-c3ccsc3)c(Nc3ccc(Cl)cc3)n2c1	60.0%[activator]	0.0%
c1ccc(COC2C3COC(O3)C(OCc3ccccc3)C2OCc2ccccc2)cc1 (centres undefined)	-1.4%	-2.5%
CNCc1cc(C)ccc1OC	3.3%	-10.6%
COc1ccc(-c2nc(CS(=O)CC(=O)NCc3ccccc3)c(C)o2)cc1 (centres undefined)	0.0%	-0.1%
COc1ccc(NC(=O)CSc2nnc(-c3nonc3NC(C)=O)n2-c2ccccc2)cc1	3.3%	-16.1%
CC(=O)c1cccc(NS(=O)(=O)c2cc3c(cc2C)N(C(C)=O)CCO3)c1	15.5%	-10.3%
COc1ccc(NC(=O)CCc2c(C)nc3c(c2C)c(=O)n(C)c(=O)n3C)cc1OC	-11.9%	-23.5%
CN(C)CCN(Cc1cccc(F)c1)C(=O)c1cccc(S(C)(=O)=O)c1	-11.6%	129.6%[activator]
COc1ccccc1Nc1nn2c(=O)c3ccc(C(=O)NCCC4=CCCCC4)cc3nc2s1	u	u
COC(=O)C1CN(Cc2ccc(OC)cc2)CCS(=O)(=O)N1Cc1cn(Cc2ccccc2)nn1 (centres undefined)	-3.5%	-9.7%
Cc1ccccc1OCc1nc2c3cnn(-c4cccc(F)c4)c3ncn2n1	-10.2%	22.3%
Cc1nn(-c2ccccc2)c2sc(C(=O)Nc3cccc(Br)c3)cc12	4.2%	2.8%
Cc1nc2cc(NC(=O)c3ccc(F)cc3)ccc2o1	9.2%	217.2%[activator]
COc1ccc(CCNC(=O)c2c3c(nc4ccccc24)C(=O)N(C2CCCCC2)C3)cc1OC	44.2%[activator]	-21.8%

# Reprinted at random: two compounds from above, in no set order.
SMILES	StopGo RLuc	StopGo FLuc
COc1ccc(-c2nc(CS(=O)CC(=O)NCc3ccccc3)c(C)o2)cc1 (centres undefined)	0.0%	-0.1%
O=S(=O)(Nc1cccc2cccnc12)c1ccc(F)c(F)c1F	u	u

# Later entries:
SMILES	StopGo RLuc	StopGo FLuc
O=c1c2cc3c(cc2nc2sc(Nc4ccccc4)nn12)OCO3	22.2%	52.6%[activator]
CCOc1cc(C(=O)N(C)Cc2cc3cc(OC)ccc3[nH]c2=O)cc(OCC)c1OCC	1.4%	-3.7%
CC1=C(C(=O)Nc2ccccc2)C(c2ccncc2)n2nc(SCc3ccccc3F)nc2N1 (centres undefined)	-13.6%	-20.8%
Cc1ccc(N2CC(NC(=O)c3cc4ccccc4o3)CC2=O)cc1C (centres undefined)	-4.7%	-24.3%
Cc1nnc(NC(=O)c2nn(C(C)C)c(=O)c3ccccc23)s1	-10.1%	-11.1%
O=C(NCc1ccccc1)c1ccc(Cn2cnc3ccccc3c2=O)cc1	-0.4%	14.8%
O=C(c1cccnc1)N(Cc1cccs1)C1CC1	11.6%	10.1%
O=C(NCCc1ccccc1)C1(c2cccs2)CCOCC1	-12.4%	-16.1%

# This is a subset; the hit share may differ from the screen's.
